From PubChem
rRNA inh HTS – selective bacterial rRNA inhibition in E. coli; E. coli WT GFP vs humanized-ribosome RFP mutants, fluorescence, 24 h; stronger effect = lower value; DMSO median 0, no signal -100; GFP signal change (wild-type ribosome), % (concentration not given with the values); 1.6% of 350,000 active;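 active = significant combined selectivity score with lowered wild-type GFP, culture density cut under 30%, mutant RFP and density less affected; inactive = any of these conditions unmet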; note: one replicate is shown; some compounds called inactive have numbers as strong as hits
FGF22 binding – shifts melting point of recombinant human FGF22. Q9HCT0. recombinant FGF22 thermal shift, SYPRO orange fluorescence; percent of sucrose octasulfate shift, DMSO zero. calls only at 9.99 µM. 1.5% of 340,000 active. AID 651658;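 active = melting point raised past a set limit in the mean and every replicate; three in four hits are not shown here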
Target sequence (Q9HCT0 whole entry, looked up): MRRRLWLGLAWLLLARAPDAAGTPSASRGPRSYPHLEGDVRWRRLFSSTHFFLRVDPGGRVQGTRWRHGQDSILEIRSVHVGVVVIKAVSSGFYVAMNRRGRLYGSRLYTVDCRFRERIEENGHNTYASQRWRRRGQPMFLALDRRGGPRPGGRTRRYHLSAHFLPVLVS
rRNA inh HTS OD600 – also measured in rRNA inh HTS; calls as there; OD600 change, %; measured here: OD600 growth;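 optical density of the mix in the first replicate; 0 = DMSO median and -100 = no signal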
rRNA inh HTS RFP – second read-out of rRNA inh HTS, no call of its own (marks repeat the call); RFP signal change, %; measured here: RFP humanized mutant strains;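 first replicate; 0 = DMSO median and -100 = no signal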
Active calls of the source: *; i = inactive. This is a subset; count on the stated rates, not on these rows.

SMILES | rRNA inh HTS | rRNA inh HTS OD600 | rRNA inh HTS RFP | FGF22 binding
COC(=O)C1=C(C)N(Cc2cccc(C(F)(F)F)c2)C(=NCc2cc(OC)c(OC)c(OC)c2)NC1c1ccccc1C(F)(F)F (centres undefined) | -1 | -4 | 9.5 | i
C[C@H]1CCCCO[C@H](CN(C)C(=O)NC2CCCCC2)[C@@H](C)CN([C@@H](C)CO)C(=O)c2cc(NC(=O)c3ccccc3)ccc2O1 | -4 | -1 | 4.8 | i
CCOC1=C2CN(S(=O)(=O)c3ccc(C)cc3)C(c3cccc(Cl)c3)CC2NC(c2ccccc2)C1 (centres undefined) | 2 | 4 | 1.0 | i
COc1cccc(NC(=O)N2C[C@H](O)COC[C@@H]3O[C@@H](CC(=O)NCc4ccccc4F)CC[C@H]32)c1 | 5 | 4 | -1.1 | i
C[C@H](CO)N1C[C@H](C)[C@H](CN(C)C(=O)Cc2ccccc2)OCCCC[C@H](C)Oc2ccc(NC(=O)CCC(F)(F)F)cc2C1=O | -2 | -1 | 0.6 | i
C[C@H](CO)N1C[C@H](C)[C@@H](CN(C)C(=O)Nc2cccc3ccccc23)OCCCC[C@H](C)Oc2ccc(NC(=O)CCC(F)(F)F)cc2C1=O | -4 | -5 | 0.5 | i
C[C@@H]1CCCCO[C@H](CN(C)Cc2ccc3c(c2)OCO3)[C@H](C)CN([C@@H](C)CO)C(=O)c2cc(NS(=O)(=O)c3cccs3)ccc2O1 | 1 | 10 | 4.4 | i
COc1ccc(S(=O)(=O)N(C)C[C@H]2OCCCC[C@@H](C)Oc3ccc(NC(=O)Nc4ccccc4)cc3C(=O)N([C@@H](C)CO)C[C@H]2C)cc1 | -1 | 3 | -0.3 | i
CO[C@H]1CN(C)C(=O)c2cc(NC(=O)CC(F)(F)F)ccc2OC[C@H](C)N(CC2CC2)C[C@H]1C | 1 | 9 | -0.3 | i
COC(=O)C[C@@H]1CC[C@H]2[C@H](COc3ccc(NS(=O)(=O)c4ccccc4F)cc3C(=O)N2C)O1 | -2 | -4 | -0.4 | i
Fc1ccc2nc(-c3ccc(CN4CCC(c5nc6ccccc6[nH]5)CC4)cc3)c(-c3ccccc3)nc2c1 | -44 | -67 | -4.3 | i
C[C@@H]1CCCCO[C@@H](CN(C)C(=O)Cc2ccccc2)[C@H](C)CN([C@@H](C)CO)C(=O)c2cc(NC(=O)NC3CCCCC3)ccc2O1 | -1 | -6 | 2.1 | i
CN1CCN(C(=O)C[C@@H]2C[C@@H]3c4cc(NS(=O)(=O)c5ccc(F)cc5)ccc4O[C@@H]3[C@@H](CO)O2)CC1 | -1 | -2 | -1.3 | i
CCCNC(=O)Nc1ccc2c(c1)C(=O)N(C)[C@H]1CC[C@@H](CC(=O)NCc3ccccc3)O[C@H]1CO2 | -2 | -6 | -0.3 | i
CS(=O)(=O)N1CCCCN2[C@H](C1)[C@H](c1ccc(C3=CCCC3)cc1)[C@@H]2CO | 5 | 8 | 0.9 | i
CCCn1cc(CCC(=O)Nc2ccc(Oc3cccnc3)cc2)c2ccccc21 | -24 | -23 | 8.1 | i
COC(=O)C1=CN(c2ccc(N3CCOCC3)cc2)C(N)=C(C#N)C1c1cccc(OC)c1OC (centres undefined) | 5 | 4 | 1.0 | i
C[C@H](CO)N1C[C@H](C)[C@H](CN(C)S(=O)(=O)c2cccs2)Oc2ccc(NC(=O)Nc3cccc4ccccc34)cc2CC1=O | 3 | 1 | 0.2 | i
C[C@@H]1CN([C@@H](C)CO)C(=O)c2cc(NC(=O)Nc3ccc(C(F)(F)F)cc3)ccc2O[C@@H](C)CCCCO[C@@H]1CN(C)S(=O)(=O)c1cn(C)cn1 | -1 | 2 | -3.7 | i
O=C(C[C@H]1CC[C@H]2[C@@H](COC[C@@H](O)CN2C(=O)c2ccc3c(c2)OCO3)O1)NC1CCCC1 | -7 | -12 | -1.5 | i

Not a retest: an excerpt of the list.
SMILES | rRNA inh HTS | rRNA inh HTS OD600 | rRNA inh HTS RFP | FGF22 binding
COc1ccc(S(=O)(=O)N(C)C[C@H]2OCCCC[C@@H](C)Oc3ccc(NC(=O)Nc4ccccc4)cc3C(=O)N([C@@H](C)CO)C[C@H]2C)cc1 | -1 | 3 | -0.3 | i
CO[C@H]1CN(C)C(=O)c2cc(NC(=O)CC(F)(F)F)ccc2OC[C@H](C)N(CC2CC2)C[C@H]1C | 1 | 9 | -0.3 | i

New compounds follow.
SMILES | rRNA inh HTS | rRNA inh HTS OD600 | rRNA inh HTS RFP | FGF22 binding
O=C(C[C@@H]1CC[C@H]2[C@@H](COC[C@H](O)CN2C(=O)c2ccc(F)cc2)O1)N1CCCCC1 | -1 | -4 | 11 | i
Cc1noc(C)c1S(=O)(=O)Nc1ccc2c(c1)C(=O)N([C@@H](C)CO)C[C@@H](C)[C@H](CN(C)C(=O)CCCN(C)C)OCCCC[C@H](C)O2 | 1 | -2 | -0.9 | i
C[C@@H]1CCCCO[C@@H](CN(C)S(=O)(=O)c2ccc(Cl)cc2)[C@@H](C)CN([C@@H](C)CO)C(=O)c2cc(NC(=O)Nc3ccc(C(F)(F)F)cc3)ccc2O1 | 4 | 17 | 0.8 | i
COc1ccc(S(=O)(=O)N2C[C@@H](O)COC[C@H]3O[C@H](CC(=O)NCCN4CCCCC4)CC[C@@H]32)cc1 | 2 | 2 | 2.0 | i
CC(C)NC[C@H]1[C@H](c2ccc(C3=CCCCC3)cc2)[C@@H](CO)N1C(=O)NC(C)C | -1 | -35 | 35 | i
CCNC(=O)[C@H]1[C@H](CO)[C@H]2Cn3c(ccc(-c4ccccc4)c3=O)[C@@H]1N2CCC(F)(F)F | 2 | 1 | -2.9 | i
CS(=O)(=O)Nc1ccc2c(c1)[C@H]1C[C@H](CC(=O)NCc3ccc(-c4ccccc4)cc3)O[C@H](CO)[C@H]1O2 | -11 | -33 | 7.2 | i
COCC(=O)N1CC[C@@H]2[C@H]1c1cc(-c3ccc(C#N)cc3)ccc1N[C@@H]2CO | 11 | 5 | -0.4 | i
COCC(=O)Nc1ccc2c(c1)[C@H]1C[C@@H](CC(=O)N3CCCCC3)O[C@H](CO)[C@H]1O2 | 0 | 4 | -1.5 | i
O=C1Nc2ccccc2C(=O)N(Cc2ccccc2)C1C(=O)NC1CC1 (centres undefined) | 2 | 8 | 1.1 | i
COc1ccc(C(=O)C[C@@H]2OC3CCCCC3N2S(=O)(=O)c2ccc(C)cc2)cc1OC (some centres undefined) | 4 | 1 | 1.0 | i
COc1cccc(S(=O)(=O)N2CCCCN3[C@H](CO)[C@H](c4ccc(C5=CCCCC5)cc4)[C@@H]3C2)c1 | 0 | -8 | 1.4 | i
O=C(C[C@H]1CC[C@H]2[C@@H](COC[C@H](O)CN2Cc2cc(F)cc(F)c2)O1)Nc1nccs1 | -3 | -2 | 1.3 | i
COC(=O)N1C[C@H](OC)[C@H]2C[C@@H]1c1ccccc1O2 | 36 | 22 | 1.7 | i
C[C@@H]1CCCCO[C@@H](CN(C)Cc2ccc(C(F)(F)F)cc2)[C@@H](C)CN([C@@H](C)CO)C(=O)c2cc(NC(=O)Nc3ccccc3)ccc2O1 | 3 | 0 | 3.4 | i
CN1C(=O)c2cc(NC(=O)c3cccc(F)c3)ccc2OC[C@H]2O[C@H](CC(=O)NCc3ccccc3)CC[C@@H]21 | -6 | -7 | 0.8 | i
O=C(C1CC1)N1CC2(C1)[C@@H](c1ccccc1)[C@@H](CO)N2Cc1cncnc1 | 4 | 6 | -1.6 | i
COc1ccc2c3c(n(C)c2c1)[C@H](CO)N(C)CC31CCN(C(=O)CN2CCOCC2)CC1 | 5 | -8 | -3.2 | i
C[C@@H]1CCCCO[C@@H](CN(C)S(=O)(=O)c2cccs2)[C@H](C)CN([C@@H](C)CO)C(=O)c2cc(NC(=O)Cc3ccccc3)ccc2O1 | -1 | -3 | 0.4 | i
COC(=O)C1=C(C)N(C)C(=NCc2ccc(OC)cc2)NC1c1ccccc1C(F)(F)F (centres undefined) | 35 | 17 | 4.6 | i
CN(C)C(=O)C[C@@H]1CC[C@@H]2[C@H](COC[C@H](O)CN2C(=O)C2CCCC2)O1 | 2 | 2 | -1.6 | i
O=C(C[C@H]1C[C@@H]2c3cc(NC(=O)NC4CCCC4)ccc3O[C@@H]2[C@@H](CO)O1)NCc1cc(F)ccc1F | -2 | 0 | -2.2 | i
C[C@@H]1CCCCO[C@@H](CN(C)S(=O)(=O)c2ccc(F)cc2)[C@H](C)CN([C@H](C)CO)C(=O)c2cc(NC(=O)Nc3ccc(F)cc3)ccc2O1 | 2 | 8 | 0.7 | i

13 structures already listed, ordered by heavy-atom count, high to low:
SMILES | rRNA inh HTS | rRNA inh HTS OD600 | rRNA inh HTS RFP | FGF22 binding
C[C@@H]1CCCCO[C@@H](CN(C)Cc2ccc(C(F)(F)F)cc2)[C@@H](C)CN([C@@H](C)CO)C(=O)c2cc(NC(=O)Nc3ccccc3)ccc2O1 | 3 | 0 | 3.4 | i
C[C@@H]1CCCCO[C@@H](CN(C)S(=O)(=O)c2cccs2)[C@H](C)CN([C@@H](C)CO)C(=O)c2cc(NC(=O)Cc3ccccc3)ccc2O1 | -1 | -3 | 0.4 | i
CN1C(=O)c2cc(NC(=O)c3cccc(F)c3)ccc2OC[C@H]2O[C@H](CC(=O)NCc3ccccc3)CC[C@@H]21 | -6 | -7 | 0.8 | i
O=C(C[C@H]1C[C@@H]2c3cc(NC(=O)NC4CCCC4)ccc3O[C@@H]2[C@@H](CO)O1)NCc1cc(F)ccc1F | -2 | 0 | -2.2 | i
COc1cccc(S(=O)(=O)N2CCCCN3[C@H](CO)[C@H](c4ccc(C5=CCCCC5)cc4)[C@@H]3C2)c1 | 0 | -8 | 1.4 | i
COc1ccc2c3c(n(C)c2c1)[C@H](CO)N(C)CC31CCN(C(=O)CN2CCOCC2)CC1 | 5 | -8 | -3.2 | i
COC(=O)C1=C(C)N(C)C(=NCc2ccc(OC)cc2)NC1c1ccccc1C(F)(F)F (centres undefined) | 35 | 17 | 4.6 | i
O=C(C[C@H]1CC[C@H]2[C@@H](COC[C@H](O)CN2Cc2cc(F)cc(F)c2)O1)Nc1nccs1 | -3 | -2 | 1.3 | i
COCC(=O)Nc1ccc2c(c1)[C@H]1C[C@@H](CC(=O)N3CCCCC3)O[C@H](CO)[C@H]1O2 | 0 | 4 | -1.5 | i
COCC(=O)N1CC[C@@H]2[C@H]1c1cc(-c3ccc(C#N)cc3)ccc1N[C@@H]2CO | 11 | 5 | -0.4 | i
O=C(C1CC1)N1CC2(C1)[C@@H](c1ccccc1)[C@@H](CO)N2Cc1cncnc1 | 4 | 6 | -1.6 | i
CN(C)C(=O)C[C@@H]1CC[C@@H]2[C@H](COC[C@H](O)CN2C(=O)C2CCCC2)O1 | 2 | 2 | -1.6 | i
COC(=O)N1C[C@H](OC)[C@H]2C[C@@H]1c1ccccc1O2 | 36 | 22 | 1.7 | i
